Bioassay records as filed in PubChem.
TRPV1 PAM: potentiators of human vanilloid receptor 1 (TRPV1). Q8NER1. TRPV1-expressing cells, Fluo-8 calcium influx, capsaicin EC20 potentiation; host cell line not named in the record; control for the full effect not named in the record. potentiation, % at 8.33 µM. 0.02% of 320,000 active; active means potentiation above 80%; inconclusive means 30% to 80%; inactive means below 30%; further: 0% is about no effect
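Fluo-8 calcium influx in TRPV1-expressing cells, kinetic read (ex 480/em 520 nm). Compound added and read 3 min for agonist activity, followed by capsaicin at EC20 final and 2 min further read for enhancement.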
Sfp PPTase inh: blocks B. subtilis Sfp PPTase activity. Q9F4F7. Biochemical Sfp PPTase activity, qHTS. Potency, µM, for inactives: max response, negative = inhibition, usual class: inhibitors. 3.5% of 310,000 active. AID 1490; active means well fitted inhibition curve with a large enough effect; inconclusive means small, poorly fitted or top-dose-only effect, or another doubt; inactive means no such curve, though single readings can be large or run the other way;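 further: the enzyme is Sfp with the accession as filed and its product quenches rhodamine fluorescence; potency means the concentration at half of the fitted maximal effect; 0% = enzyme reaction without inhibitor and -100% = no enzyme wells; top concentration of the series not given in the record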
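Sfp 15 nM + cpd, 15 min RT; start w/ rhodamine-CoA 5 uM, BHQ-2-YbbR 12.5 uM (final); 50 mM Hepes pH 7.6, 10 mM MgCl2, 0.01% NP-40, 0.01% BSA; read 525/598 nm at 0 and 30 min.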
TRPML1 ag: activates the human TRPML1 channel | TRPML1-expressing cells, Ca2+ dye fluorescence, FDSS; host cell line not named in the record; reference of the full effect not given here | activation, % (concentration not given with the values) | 0.12% of 410,000 active; in the data active = activation above about 50%; inconclusive = about 30% to 50%; inactive = below about 30%; further: 0% is about no effect; the text of the record puts the active cut at 80%
Target sequence (Q9GZU1 whole entry, looked up): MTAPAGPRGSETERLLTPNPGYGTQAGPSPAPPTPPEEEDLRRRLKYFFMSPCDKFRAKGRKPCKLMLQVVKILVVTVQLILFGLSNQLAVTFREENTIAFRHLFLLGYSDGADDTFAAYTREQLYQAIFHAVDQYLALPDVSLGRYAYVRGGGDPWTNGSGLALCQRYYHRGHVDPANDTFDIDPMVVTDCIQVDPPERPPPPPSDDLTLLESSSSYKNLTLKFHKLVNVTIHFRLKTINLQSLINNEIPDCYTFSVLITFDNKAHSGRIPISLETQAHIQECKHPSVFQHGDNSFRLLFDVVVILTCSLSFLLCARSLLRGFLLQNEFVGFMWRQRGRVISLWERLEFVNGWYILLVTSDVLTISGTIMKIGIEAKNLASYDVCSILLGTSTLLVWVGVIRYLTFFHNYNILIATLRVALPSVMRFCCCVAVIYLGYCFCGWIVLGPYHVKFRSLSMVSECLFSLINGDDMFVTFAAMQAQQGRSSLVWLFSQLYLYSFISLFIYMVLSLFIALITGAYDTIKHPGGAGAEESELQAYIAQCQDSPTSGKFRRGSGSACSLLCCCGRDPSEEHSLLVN
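Kinetic FDSS Ca2+ read in Tet-induced TRPML1-DL cells (ABD Ca8 dye plus quencher, 45-90 min RT loading): baseline, then compound, then 110 s agonist window; EC80 agonist 54-4 at 4uM final added afterwards for a 110 s antagonist window.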
TRPML1 inh: human mucolipin-1 channel inhibition. activity change, negative = inhibition, % (concentration not given with the values). TRPML1-inducible cells, Ca2+ dye fluorescence, FDSS; hits give low values; inhibition of EC80 agonist-evoked calcium signal. AID 624415. 0.02% of 390,000 active. Q9GZU1; in the data active means activity change below about -50%; inconclusive means about -30% to -50%; inactive means above about -30%;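 further: stimulus is agonist 54-4 at its EC80 concentration; on the % scale 0 is the no-effect control and ±100 the full control effect; compound concentration not given in the record; the text of the record puts the active cut at -80%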
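TRPML1-DL cells, Tet-induced overnight (~16 h, 37 °C) at 1,500 cells/well, were loaded with Ca8 no-wash dye plus quencher for 45-90 min at room temperature. Compounds were pinned during FDSS kinetic reading; agonist 54-4 at EC80 (4 uM final) then added.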
Menin MLL FP FL: displaces fluorescein MLL peptide from human menin | FP activity change, % at 61.4 µM | 290,000 tested, under 10 active | Fluorescence polarization, fluorescein-MLL peptide displacement from menin | AID 1766; inconclusive = falling polarisation curve, or a change in total fluorescence; inactive = total fluorescence flat and polarisation flat or rising; no compound was filed as active; the % refers to the polarisation; negative = inhibition;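 further: % of control where 0% means no effect; inhibitors lower the polarisation; unlabelled MLL peptide was the positive control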
ClpP mod: qHTS Assay for Activators of ClpP. ATP-dependent Clp protease proteolytic subunit (Bacillus subtilis (strain 168)), P80244. purified B. subtilis ClpP, FRET peptide cleavage, 20 min. Potency, µM (highest dose often 57.5 µM), without a hit: at the top dose activity change, negative = active. 1.9% of 340,000 active. AID 651965, 2013; active = well fitted falling curve with a large enough effect; inconclusive = small, poorly fitted or top-dose-only effect; inactive = no such curve, though single readings can be large or run the other way; further: potency means the concentration at half of the fitted maximal effect; the source files actives as falling curves though it sought activators and does not explain the sign; nearly all actives have a fitted effect of over 65% in size; many hits overshoot -100%
Target sequence (P80244 whole entry, looked up): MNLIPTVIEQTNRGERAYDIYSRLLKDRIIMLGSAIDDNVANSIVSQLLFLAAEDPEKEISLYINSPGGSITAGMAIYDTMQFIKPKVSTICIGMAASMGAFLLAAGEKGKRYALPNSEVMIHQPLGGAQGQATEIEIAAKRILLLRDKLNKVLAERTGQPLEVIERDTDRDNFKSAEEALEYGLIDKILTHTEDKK
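Purified B. subtilis ClpP, 10 microg/mL final in Tris/HCl pH8 with KCl, BSA, glycerol and Tween-20, cleaved an Abz/nitrotyrosine-quenched decapeptide. Fluorescence (ex 320, em 430) was read at 0 and 20 min at room temperature. Delta was normalized to 5.8 microM ADEP and DMSO/no-enzyme controls.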
PINK1 modulator: changes PINK1 expression | PINK1 immunofluorescence, high-content cytometry, 24 h | Potency, µM (doses to about 76.6 µM), inactives show top-dose activation (PINK1 increase), actives largely listed as activators | 0.2% of 410,000 active | AID 624263; active = well fitted activation curve with a large enough effect; inconclusive = small, poorly fitted or top-dose-only effect; inactive = flat fitted curve, though single readings scatter; cell line not stated here;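 further: potency means the concentration at half of the fitted maximal effect; % of control where 0% means no effect; nearly all actives have a fitted effect of over 65% in size; a mitochondrial uncoupler was the plate control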
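PINK1 protein, normally rapidly degraded, was detected by immunofluorescence after 24 hour compound treatment of a stable cell line. Titration data (5 concentrations) came from laser-scanning cytometry, with CCCP-treated wells as controls.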
* = called active by the depositor; u = inconclusive; x = no result given; [ ] = remark or other dose.

SMILES	TRPV1 PAM	Sfp PPTase inh	TRPML1 ag	TRPML1 inh	Menin MLL FP FL	ClpP mod	PINK1 modulator
COc1cc(CCC(=O)NCc2ccc3c(c2)CCN3C(=O)c2ccccc2)cc(OC)c1OC	x	x	2.0	-6	x	-2.0%	0.2%
O=C(/C=C/c1ccccc1)Nc1cc(-c2nc3cc(Cl)ccc3o2)ccc1Cl	x	x	0.2	14	x	-5.5%	1.3%
CC(=O)N1CCN(CC(=O)Nc2ccc(C)c(F)c2)CC1	1	-25%	-0.4	14	-7.8	-0.1%	2.2%
CC(C)COC(=O)N1CCCCC1c1cc(C(=O)NCc2cccnc2)no1 (centres undefined)	x	x	-0.2	-10	x	-0.4%	-0.3%
Cc1c(NC(=O)CSc2nnc(-c3ccncc3)o2)c(=O)n(-c2ccccc2)n1C	u	-4%	0.0	-11	0.1	0.3%	2.1%
O=C(N/N=C/c1ccc(O)cc1O)c1ccncc1	9	13%	0.1	2	u	0.6%	0.2%
CCCCNC(=O)CN(c1ccc(Cl)c(Cl)c1)S(C)(=O)=O	-1	10%	1.6	18	2.0	0.4%	-1.3%
O=C(O)c1ccc(S(=O)(=O)NN=Cc2c[nH]c3ccccc23)cc1	x	x	0.2	-16	x	-4.6%	-1.0%
Cc1nn2c(NCC(C)C)c3c(nc2c1-c1ccccc1)CCC3	-6	1%	-0.9	-4	-1.7	7.9µM*	29%[38.3 µM]
OC(c1cc(C(F)(F)F)nc2c(Cl)cc(Cl)cc12)C1CCCCN1 (centres undefined)	-4	-3%	2.0	-2	-1.4	x	-3.5%
CS(=O)(=O)Nc1ccccc1C(=O)c1ccccc1	6	10%	2.2	23	0.6	-1.1%	1.8%
O=C1C(=O)C(Cl)=C(Cl)C(Cl)=C1Cl	x	x	-0.3	x	x	-1.7%	1.0%
CCOc1cc(C(=S)N2CCOCC2)cc(Br)c1OS(=O)(=O)c1ccccc1	17	79µM*	-0.4	6	0.3	0.4%	2.8%
Nn1c(SCC(=O)NCc2ccccc2)nnc1C1CC1	12	7%	0.1	18	-0.7	0.3%	5µM*
Cc1cc(C)n(-c2cc(N3CCN(S(=O)(=O)c4ccc5ccccc5c4)CC3)ccc2[N+](=O)[O-])n1	-11	5%	0.3	-7	3.5	2.3%	1.8%
CC(C)/C(=N\NC(=O)Nc1ccccc1)c1ccccc1	x	16%	3.4	16	3.6	1.1%	2.3%[38.3 µM]
COc1cc(O)c2c(c1)OC(c1ccc(O)cc1)CC2=O (centres undefined)	27	-1%	x	x	0.4	-0.6%	-1.3%
COc1ccc(Cl)c2sc(N(CCN(C)C)C(=O)C3=COCCO3)nc12	x	x	-0.4	-14	x	-1.0%	-1.6%
CCOC(=O)C(=O)Nc1nc(-c2ccc3c(c2)CCN3C(=O)C2CC2)c(C)s1	-10	-9%	3.7	17	7.6	0.8%	2.5%
CCc1nc2ccc(C(=O)Nc3ccc(OC)c(OC)c3)cn2c1N(CC)Cc1cccc(Br)c1	x	x	0.1	30	x	-12%	1.1%
CCOC(=O)c1cccc(NC(=O)CCn2nnc3ccccc32)c1	6	21%	1.2	4	2.2	-2.0%	6.9%[38.3 µM]
CCOc1cc(C(=O)NC(CC(=O)O)c2ccc(OC3CCCC3)cc2)cc(OCC)c1OCC (centres undefined)	5	-11%	0.2	8	-2.1	-0.8%	0.2%
COc1cc(NC(=S)NC2CC(C)(C)NC(C)(C)C2)cc(OC)c1	3	20%	-0.5	-12	2.4	x	-0.9%
CCC(=O)N1CCN(c2ccc(Cl)cc2NC(=O)c2ccc(Br)o2)CC1	x	x	0.5	12	x	-0.7%	8.1%[38.3 µM]
COc1ccccc1N1CCN(C(=O)c2ccc3nc(-c4ccco4)c(-c4ccco4)nc3c2)CC1	-10	-7%	3.8	7	2.7	3.0%	-3.5%
O=c1/c(=C/c2ccc(O)cc2)sc2n1CCCN=2	5	2%	1.1	-1	1.4	-0.8%	4.5%
COc1cc(S(=O)(=O)NC2CCCC2)c(OC)cc1Cl	0	6%	1.2	0	0.7	0.1%	3.5%[38.3 µM]
Cc1onc(-c2ccccc2Cl)c1C(=O)NC(=S)NCc1cccnc1	-24	13%	0.2	-6	-6.7	x	-0.7%
CCCCN(CCCNC(=O)CN1N=C(c2ccc(C)cc2)CCC1=O)c1ccccc1	x	x	0.4	8	x	0.3%	0.3%
Cc1cn(CC(=O)NCc2ccc3c(c2)OCO3)c(=O)[nH]c1=O	x	x	-0.5	-19	x	-1.3%	-0.7%
N/C(=N\OC(=O)c1ccc(Cl)cc1Cl)c1ccc(Cl)cc1	3	11%	0.5	-6	2.9	-1.0%	2.0%
O=C(Nc1ccc(F)c(Cl)c1)c1cc(C2CCCCN2C(=O)c2ccccc2)on1 (centres undefined)	x	x	0.0	x	x	-7.0%	0.5%
COc1ccc(CNC(=O)C(c2cccs2)N(C(=O)c2csnn2)C2CC2)cc1 (centres undefined)	13	-16%	-0.5	16	2.7	-0.2%	-0.7%
Cc1ccc(CN(Cc2ccc(C)o2)C(=S)NCC(=O)O)cc1	2	-14%	0.6	-13	-1.8	1.4%	0.4%
O=C(C1CC(=O)N(c2ccc(F)cc2)C1)N1CCN(c2ccc(F)cc2)CC1 (centres undefined)	-1	-7%	0.5	-1	x	-4.3%	0.1%
COC(=O)c1c(N)sc(Cc2ccccc2)c1C	16	-2%	-0.4	2	1.3	1.3%	2.0%
COc1cccc(NC(=O)Cn2cc(S(=O)(=O)Cc3ccccc3F)c3ccccc32)c1	x	x	2.1	-9	x	-0.5%	1.2%
O=C(O)CS(=O)(=O)CC(=O)NCc1cccc(C(F)(F)F)c1	-2	7%	-0.4	-1	1.0	x	1.3%
C=CCN1C(C(=O)c2ccccc2)=C(OC(=O)COc2ccccc2)c2ccccc2S1(=O)=O	10	-18%	0.3	12	3.9	-2.1%	0.2%
CC1SCC(=NOCc2ccccc2)CS1 (centres undefined)	1	3%	0.0	13	-0.4	x	0.5%
O=C(C1CC(=O)N(C2CCCC2)C1)N1CCN(c2cccc(Cl)c2)CC1 (centres undefined)	15	7%	-0.1	-2	x	-1.4%	1.9%
N#Cc1cccc(OC(=O)c2ccc3c(=O)n4c(nc3c2)CCC4)c1	12	x	0.0	2	x	0.8%	-1.9%
CCN1CCN(c2ccc(NC(=O)c3cccc(OCc4ccccc4)c3)cc2)CC1	-5	-21%	-0.3	7	1.0	-6.0%	13%
O=C(CCCCl)Oc1ccc2cc(-c3ccc4ccccc4n3)c(=O)oc2c1	11	0%	25	12	u	x	2.8%
CCOC(=O)CCSc1nc(N2CCOCC2)c2c(c1C#N)CC(C)(C)OC2	-15	-2%	-0.7	6	3.1	x	1.2%
Cc1ccc(NC(=O)Cn2cnc3cc([N+](=O)[O-])ccc3c2=O)cc1	2	4%	-0.9	-13	-1.3	x	6.7%
c1ccc(Cn2c(SCCN3CCOCC3)nnc2-c2cccnc2)cc1	x	-28%	-0.7	7	4.1	1.1%	-0.7%
CN(CCc1ccccn1)C(=O)CN(C)S(=O)(=O)c1ccc2c(c1)c(=O)n(C)c(=O)n2C	4	14%	0.1	-9	-2.0	-3.5%	-1.9%[38.3 µM]
Cc1ccc2cc(CN(c3ccccc3C)S(=O)(=O)c3ccccc3)c(=O)[nH]c2c1	13	6%	1.4	18	5.8	-3.8%	9.2%
COc1ccccc1/C=N/NC(=O)c1ccc(N(C)S(=O)(=O)c2ccccc2)cc1	3	9%	0.2	-21	-4.3	-6.7%	0.6%

Additional records follow.
SMILES	TRPV1 PAM	Sfp PPTase inh	TRPML1 ag	TRPML1 inh	Menin MLL FP FL	ClpP mod	PINK1 modulator
CC(C)[C@H](NC(=O)OC(C)(C)C)c1nnc(SCc2cccc(F)c2)o1	-21	-7%	1.3	7	-2.0	-1.4%	-2.4%
O=C(CN1C(=O)/C(=C/c2ccco2)SC1=S)Nc1ccc(O)c(C(=O)O)c1	-6	50µM*	1.3	-1	x	0.3%	-0.9%
Cc1cc(C)cc(NC(=O)C(OC(=O)C2=COCCO2)c2ccccc2)c1 (centres undefined)	1	-2%	-0.2	5	-2.8	-1.0%	-0.8%
O=C(c1cc(COc2ccc(F)cc2Cl)on1)N1CCC(OCc2cccnc2)CC1	-5	-7%	-0.9	2	-10	x	1.9%
Cn1nnnc1SCC(=O)c1c(N)n(C2CC2)c(=O)[nH]c1=O	5	x	0.3	5	x	1.2%	2.0%
CC1C(=O)N(Cc2cn(CCC3OCCCO3)nn2)CCS(=O)(=O)N1Cc1ccc(-c2ccncc2)cc1 (centres undefined)	x	x	0.3	9	x	0.2%	-1.0%
O=c1[nH]c(NC2CCCCC2)c([N+](=O)[O-])c(=O)[nH]1	6	15%	0.3	-14	3.4	0.8%	7.4%
COc1ccc(OC)c(NC(=O)CCC(=O)N(Cc2ccc(OC)c(OC)c2)c2nccs2)c1	10	2%	2.2	22	2.4	x	2.1%
CCC(=O)Nc1ccc(CC)cc1-c1nc2ccccc2n(Cc2ccccc2)c1=O	x	x	0.3	-3	x	-1.4%	0.9%
C/C(=N\NC(=O)c1ccc(N)cc1)C1CC1	-12	8%	0.4	-5	x	-3.6%	-0.6%
COc1ccc(NC(=O)CN2CCN(CC(=O)Nc3ccccc3Cl)CC2)c(OC)c1	-1	16%	-0.2	0	-1.2	0.7%	0.9%[38.3 µM]
Cc1ccc(CNC(=O)c2ccccc2SCC(=O)NCC2CCCCC2)cc1	-3	23%	2.6	-9	5.9	4.6%	3.4%
Cc1cccc(CC(=O)NCCc2csc(-c3ccc(C(F)(F)F)cc3)n2)c1	x	x	4.7	32	x	u	10%
CCN(CC)c1ccc2nc3c4ccccc4c(=O)cc-3oc2c1	-3	2%	2.0	8	u	0.9%	0.2%
c1ccc(N2CCN(c3c4c(nc5ncnn35)CCC4)CC2)cc1	0	7%	-0.3	-3	-1.8	0.7%	5.1%[38.3 µM]

Full records, looked up by structure. Order of screens: TRPV1 PAM, Sfp PPTase inh, TRPML1 ag, TRPML1 inh, Menin MLL FP FL, ClpP mod, PINK1 modulator
`CCOC(=O)c1cccc(NC(=O)CCn2nnc3ccccc32)c1` is listed as 6, 21%, 1.2, 4, 2.2, -2.0%, 6.9%[38.3 µM]
`CC(C)COC(=O)N1CCCCC1c1cc(C(=O)NCc2cccnc2)no1` (centres undefined) is listed as x, x, -0.2, -10, x, -0.4%, -0.3%
